Screening data: PubChem BioAssay, Southern Research Institute
Mtb H37Rv: Mycobacterium tuberculosis H37Rv growth inhibition, putative kinase inhibitor library, confirmatory dose response (AID 2842) | hit rate 5.2% among 24,000 | M. tuberculosis H37Rv growth inhibition; higher % means a stronger effect; some inactives read as strong as hits | inhibition, % at 10 µg/mL; hits with a dose series show IC90 in µg/mL;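 active = confirmed in a dose series; about a fifth of its hits are not listed in these tables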;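 also: bacteria incubated one week before Alamar blue readout; 0% = bacteria only wells and 100% = bacteria with high antibiotic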
Active calls of the source: *; & = joins results of further samples. Some of the compounds tested; count on the stated rates, not on these rows.

SMILES	Mtb H37Rv
Nc1nc(SCc2cccc(F)c2)[nH]c(=O)c1NC(=O)c1ccco1	-7%
COc1ccc(S(=O)(=O)c2cn(Cc3ccc(F)cc3)c3ccc(OC)cc3c2=O)cc1	-4%
Cc1ccc(C(=O)Nc2c(N)nc(SCC(=O)Nc3cccc(F)c3)[nH]c2=O)cc1	-8%
O=C(Nc1nc(-c2ccccc2)c(C(=O)c2ccccc2)s1)c1ccc2ccccc2c1	25%
COC(=O)c1c(NC(=O)C2CC2)sc2c1CCN(C(C)=O)C2	-5%
CCOC(=O)c1nn(-c2ccc(F)cc2)c(=O)c2c(NC(=O)c3cc(Cl)ccc3[N+](=O)[O-])scc12	5%
O=C(Cc1ccc(F)cc1)N(CCCn1ccnc1)c1nc2ccc(F)cc2s1	3.4µg/mL*
Cc1nnc(NC(=O)CSc2nnc(CNC(=O)c3ccccc3C(F)(F)F)n2-c2cccc(Cl)c2)s1	-2%
O=C(CCN1C(=O)c2cccc3cccc(c23)C1=O)Nc1nc(-c2ccccc2)cs1	-20%
CCS(=O)(=O)c1cccc(C(=O)Nc2nc(-c3cccc4ccccc34)cs2)c1	11%
CCOC(=O)Nc1c(C(N)=O)oc2ccccc12	-5%
CCCCOc1ccc(C(=O)NCc2nnc(SCC(=O)Nc3nnc(C)s3)n2-c2ccc(Br)cc2)cc1	-9%
Fc1ccccc1CSc1nnc2ccc(-c3ccc(Br)cc3)nn12	-1%
CCOC(=O)N1CCc2c(sc(NC(C)=O)c2C(=O)OC)C1	14µg/mL*
CC1C(=O)N2CCCc3cc(NC(=O)COc4ccc5ccccc5c4)cc1c32 (stereo not drawn)	13%
Cc1ccc(NC(=O)c2oc3ccccc3c2NC(=O)c2ccc([N+](=O)[O-])cc2)cc1	3%
Cc1ccc(Cn2nnc3c(SCC(=O)NCc4ccc5c(c4)OCO5)ncnc32)cc1	-3%
O=C1c2oc3ccc(Cl)cc3c(=O)c2C(c2cccnc2)N1Cc1ccco1 (stereo not drawn)	17%
COc1ccc(-n2c(=O)[nH]c3c(C(N)=O)nc(-c4ccccc4Cl)nc32)c(OC)c1	16%
Cc1cc(C)c2nc(NC(=O)c3ccc(N4C(=O)CCC4=O)cc3)sc2c1	22%
Cc1ccc2nc(NC(=O)c3ccc(C(=O)C(=O)c4ccccc4)cc3)sc2c1	20%
Cc1ccc(-n2c(SCC(=O)Nc3nc4ccc(C)cc4s3)nc3c(c2=O)SCC3)cc1	1%
COc1ccc(-c2nc(C(N)=O)c3[nH]c(=O)n(-c4ccc(C)c(C)c4)c3n2)c(OC)c1	2%
Cc1ccc2cc(CCNC(=O)C(=O)c3c[nH]c4ccccc34)c(=O)[nH]c2c1C	1%
CC1=C(C(=O)Nc2ccc(Cl)cc2)C(c2ccc3c(c2)OCO3)n2nnnc2N1 (stereo not drawn)	-1%
Cc1cc(=O)c2cc(N3CCOCC3)ccc2[nH]1	-3%
Cc1cccc(-n2ccnc2SCC(=O)Nc2nc3ccc(C)cc3s2)c1	9%
Cc1cccc(NC(=O)/C(C#N)=C/c2ccc(OC(=O)c3ccccc3)cc2)c1	10%
COc1ccc(-c2cnnn2-c2ccc(NC(=O)c3cc4ccccc4oc3=O)cc2)cc1OC	-14%
O=C(CSc1nc2[nH]ncc2c(=O)[nH]1)N1CCCC1	3%
CCCCn1c(=N)c(C(N)=S)cc2c(=O)n3cccc(C)c3nc21	-3%
COc1ccc2nc(Nc3nc4ccc5nc(SC)sc5c4s3)sc2c1	63%
Nc1nc(SCc2ccc([N+](=O)[O-])cc2)[nH]c(=O)c1NC(=O)c1ccc(F)c(F)c1	-4%
COc1ccc(C(=O)NCc2nnc(SCC(=O)Nc3nnc(C)s3)n2-c2ccc(OC)cc2)cc1	-4%
CN(C(=O)CCl)c1nnc(C23CC4CC(CC(C4)C2)C3)s1	26%
COc1ccc(N2C(=O)C3N=NN(Cc4cccc(Cl)c4)C3C2=O)cc1OC (stereo not drawn)	-11%
Nn1c(SCc2ccc(Cl)c(Cl)c2)nnc1-c1ccc(Cl)cc1	1%
O=C(Nc1c(C(=O)Nc2ccc(OC(F)(F)F)cc2)oc2ccccc12)c1ccc([N+](=O)[O-])cc1	3%
COc1ccc(CCNc2ncnc3ccccc23)cc1OC	1%
Cc1cccc(Cn2cc(SCC(=O)Nc3nccs3)c3ccccc32)c1	-1%
Cn1nc(-c2cccc(NC(=O)c3cccnc3)c2)ccc1=O	3%
O=C(Nc1ccc([N+](=O)[O-])cc1Br)C1COc2ccccc2O1 (stereo not drawn)	-1%
CCC(Sc1nc(N)c(NC(=O)c2ccc(OC)cc2)c(=O)[nH]1)C(=O)O (stereo not drawn)	3%
Cc1ccc(N2CC(NC(=O)c3c(F)cccc3F)CC2=O)cc1C (stereo not drawn)	2%
COc1cccc2cc(C(=O)NCc3ccncc3)c(=O)oc12	18%
CCc1ccccc1NC(=O)CN1N=NC2C(=O)N(c3ccc(F)c(Cl)c3)C(=O)C21 (stereo not drawn)	-9%
CCOc1ccc2nc(Nc3nc4ccc(OC)cc4s3)sc2c1	70%
N#C/C(=N\Nc1ccc(Br)cc1)c1nc(-c2ccc3ccccc3c2)cs1	4%
CCCC(CCC)C(=O)NCCc1cc2ccc(C)cc2[nH]c1=O	-2%
Cc1ccc(S(=O)(=O)c2cnc(SCC(=O)Nc3ccccc3)[nH]c2=O)cc1C	-25%
CCOC(=O)c1nn(-c2ccc(C)cc2)c(=O)c2c(NC(=O)Cc3cccs3)scc12	4%
Cc1cccc(CSc2[nH]c(=O)ncc2C)c1	-13%
Cc1ccccc1C(=O)N1N=C(c2ccc(Br)cc2)CC1c1nc2ccccc2[nH]1 (stereo not drawn)	80%
Cc1ccc(S(=O)(=O)Nc2ccccc2C(=O)Nc2nc(-c3cccs3)cs2)cc1	8%
Cc1ccc(C(=O)c2sc3nc4c(c(-c5ccco5)c3c2N)CCCCC4)cc1	-7%
Cc1ccccc1OCC(O)Cn1c(SCC(O)CO)nc2c1c(=O)[nH]c(=O)n2C (stereo not drawn)	8%
Cn1c(=NC(=O)CCS(=O)(=O)c2ccc(F)cc2)sc2c(Cl)ccc(Cl)c21	-9%
Cc1ccc(N2C(=O)C3N=NN(Cc4cccc(F)c4)C3C2=O)cc1C (stereo not drawn)	-3%
CCCn1cc(C(=O)Nc2ccc3c(c2)OCCO3)c2nn(-c3ccccc3)c(=O)c-2c1	-11%
CCCCCOC(=O)c1ccc(OC(=O)c2cccc(C(=O)OC(C)C)n2)cc1	81%
(further entries)
SMILES	Mtb H37Rv
CC(NC(=O)NC1CC(=O)N(c2ccc(F)cc2)C1)c1ccccc1 (stereo not drawn)	0%
COc1cccc(-n2c(=O)[nH]c3c(C(N)=O)nc(-c4ccccc4C)nc32)c1	2%
COc1cccc2c(=O)cc(C)n(CC(=O)NCc3ccccc3)c12	-3%
CC1CCc2c(sc(Nc3nc4c(F)cccc4s3)c2-c2nc3ccccc3s2)C1 (stereo not drawn)	5%
Cn1c(=O)c2c(SCC(=O)Nc3ccc(F)cc3F)nc(-c3ccc([N+](=O)[O-])cc3)nc2n(C)c1=O	5%
COC(=O)COc1ccc(/C=C2\Oc3cc(OC)ccc3C2=O)cc1	83%
O=C(NCC(c1ccco1)N1CCN(c2ccccc2)CC1)c1ccc([N+](=O)[O-])cc1 (stereo not drawn)	-9%
COC(=O)c1ccc(CSc2nc(N)c3c4c(sc3n2)CCC4)cc1	42%
N#CC1=C(N)Oc2c(oc(CO)cc2=O)C1c1ccc(Br)cc1 (stereo not drawn)	-7%
Cn1c(=O)[nH]c(=O)c2c1nc(CN1CCN(c3cccc(Cl)c3)CC1)n2Cc1ccccc1Cl	48%
CCn1c(/C(C#N)=C/c2cccc3ccccc23)nc2ccccc21	12%
COc1ccc2nc(-c3ccc(C)c(NC(=O)C4CC4)c3)cn2n1	-7%
CCCc1cc(=O)[nH]c2nnc(SCC(=O)Nc3ccc(F)cc3F)n12	-6%
O=C(O)c1cc2ccccc2n1-c1ccccc1	5%
CCC(=O)Nc1sc2c(c1C(N)=O)CCN(C)C2	2%
CCn1c(N/N=C/c2cc(Br)ccc2OC)nc2c1c(=O)[nH]c(=O)n2C	4%
O=C(CC1SC(=Nc2ccc(O)cc2)NC1=O)c1ccc(Br)cc1 (stereo not drawn)	-7%
Cc1cccn2c(=O)c(/C=C3\SC(=S)N(C)C3=O)c(N3CCC(C(N)=O)CC3)nc12	6%
CN(C)S(=O)(=O)c1ccc(C(=O)Nc2nc(-c3ccccc3)cs2)cc1	4%
O=C(NC1CC(=O)N(c2ccc3c(c2)OCCO3)C1)N1CCN(c2ccccc2F)CC1 (stereo not drawn)	9%
Cn1c(=O)[nH]c(=O)c2c1nc(N1CCN(c3ccccc3)CC1)n2CCSc1nc2ccccc2s1	3%
CCOC(=O)c1sc(Nc2nc3c(OC)cccc3s2)nc1C	17%
COc1cccc2sc(N(CCCn3ccnc3)C(=O)Cc3ccc(F)cc3)nc12	3.5µg/mL*
COc1ccc(C(=O)Nc2c(C(=O)Nc3ccccc3)oc3ccccc23)c(OC)c1	-1%
CN(C)c1ccc(/C=C2\SC(=Nc3ccc(O)cc3)NC2=O)cc1	1%&3%
CC(C)Oc1ccc(/C(O)=C2\C(=O)C(=O)N(CCCn3ccnc3)C2c2ccccc2)cc1 (stereo not drawn)	-11%
O=C(Cn1cc(S(=O)(=O)Cc2ccccc2)c2ccccc21)Nc1ccc2c(c1)OCO2	8%
CCCc1cc(=O)[nH]c(SCC(=O)c2ccc(Br)cc2)n1	11%
COc1ccc(-n2c(=S)[nH]c3cc(C(=O)Nc4cc(C(N)=O)ccc4OC)ccc3c2=O)cc1	9%
CC(=O)N1CCc2c(sc(NC(=O)C3CCCCC3)c2C(N)=O)C1	-1%
NC(=O)c1sc(=S)n(-c2ccccc2)c1N	-10%
CCN1CCN(c2ccc(N3CCN(C(=O)c4ccc(OC)cc4)CC3)nn2)CC1	-1%
Cc1ccc(-c2csc(NC(=O)c3ccc(S(=O)(=O)N4CC(C)CC(C)C4)cc3)n2)c(C)c1 (stereo not drawn)	1%
CCN1C(=O)c2cccc3c(NC(=O)c4ccc(S(=O)(=O)N(C)C)cc4)ccc1c23	24µg/mL*
COc1ccccc1C(=O)Oc1cc(N)n(S(=O)(=O)c2ccccc2)n1	-5%
O=C(CC1Nc2cccc3cccc(c23)NC1=O)Nc1ccc(F)cc1 (stereo not drawn)	27%
CC(=O)c1ccc(-n2ccnc2)cc1	13%
CN1C(=O)c2cccc(NC(=O)c3cc(Cl)sc3Cl)c2C1=O	-11%
O=C(Cn1cnc2c(cnn2-c2ccc(F)cc2)c1=O)NCCc1ccccc1	-7%
O=C(Nc1c(C(=O)Nc2ccc(F)c(F)c2)oc2ccccc12)c1ccco1	-4%
COCc1c(Br)c(C)nc(OCC(=O)N/N=C/c2ccccc2O)c1C#N	-19%
Cc1cc(C)cc(NC(=O)CSc2nnc3[nH]c(=O)c(C)c(C)n23)c1	-13%
COC(=O)c1ccc(NC(=O)CSc2nc3c([nH]2)c(=O)n(C)c(=O)n3C)cc1	-15%
CCc1cccc(OCC(O)Cn2c(N(C)Cc3ccccc3)nc3c2c(=O)[nH]c(=O)n3C)c1 (stereo not drawn)	4%
CCOc1ccc(-n2c(SCC(=O)Nc3ccc4c(c3)OCO4)nc3c(c2=O)SCC3)cc1	-5%
CCCC(CCC)C(=O)NCCc1cc2ccc(OC)cc2[nH]c1=O	1%
Cc1ccc(Nc2nnc(-c3cc4cc(Cl)ccc4oc3=O)s2)cc1	3%
COc1ccc(/C=C2\SC(=S)N(CCC(=O)Nc3ccc(C(=O)O)c(O)c3)C2=O)cc1OC	54%
COc1ccc(OC)c(NC(=O)c2cnc3n(c2=O)CCS3)c1	11%
CCOc1ccc(-c2nc(C(N)=O)c3[nH]c(=O)n(-c4ccc(C)c(C)c4)c3n2)cc1	-16%
CCOc1ccc2nc(NC(=O)c3ccc(Br)cc3F)sc2c1	1%
O=C(NCc1ccccc1)NC1CC(=O)N(c2ccc(Cl)cc2)C1 (stereo not drawn)	8%
Cc1ccc2sc(N(CCCn3ccnc3)C(=O)c3cccs3)nc2c1C	0.54µg/mL*
Cc1ccc(N2CC(NC(=O)NCc3ccccn3)CC2=O)cc1C (stereo not drawn)	-2%
COc1ccc(-c2nnc3ccc(SCC(=O)c4ccccc4)nn23)cc1OC	11%
CC(=O)Nc1ccc(NC(=O)CSc2ccc(-c3ccc(Cl)cc3)nn2)cc1	0%

Given bar-delimited: 3 of the compounds above.
mol | Mtb H37Rv
O=C(NCc1ccccc1)NC1CC(=O)N(c2ccc(Cl)cc2)C1 (stereo not drawn) | 8%
CC(=O)Nc1ccc(NC(=O)CSc2ccc(-c3ccc(Cl)cc3)nn2)cc1 | 0%
Cc1ccc2sc(N(CCCn3ccnc3)C(=O)c3cccs3)nc2c1C | 0.54µg/mL*

13 structures out of the list, sorted by length of the SMILES, highest first:
SMILES	Mtb H37Rv
COc1ccc(/C=C2\SC(=S)N(CCC(=O)Nc3ccc(C(=O)O)c(O)c3)C2=O)cc1OC	54%
CCc1cccc(OCC(O)Cn2c(N(C)Cc3ccccc3)nc3c2c(=O)[nH]c(=O)n3C)c1 (stereo not drawn)	4%
CCOc1ccc(-n2c(SCC(=O)Nc3ccc4c(c3)OCO4)nc3c(c2=O)SCC3)cc1	-5%
COC(=O)c1ccc(NC(=O)CSc2nc3c([nH]2)c(=O)n(C)c(=O)n3C)cc1	-15%
CC(=O)Nc1ccc(NC(=O)CSc2ccc(-c3ccc(Cl)cc3)nn2)cc1	0%
O=C(Cn1cnc2c(cnn2-c2ccc(F)cc2)c1=O)NCCc1ccccc1	-7%
COc1ccc(-c2nnc3ccc(SCC(=O)c4ccccc4)nn23)cc1OC	11%
Cc1ccc(Nc2nnc(-c3cc4cc(Cl)ccc4oc3=O)s2)cc1	3%
CN1C(=O)c2cccc(NC(=O)c3cc(Cl)sc3Cl)c2C1=O	-11%
CCCC(CCC)C(=O)NCCc1cc2ccc(OC)cc2[nH]c1=O	1%
COc1ccc(OC)c(NC(=O)c2cnc3n(c2=O)CCS3)c1	11%
CCOc1ccc2nc(NC(=O)c3ccc(Br)cc3F)sc2c1	1%
CC(=O)c1ccc(-n2ccnc2)cc1	13%
